Assay outcomes: PubChem BioAssay, National Center for Advancing Translational Sciences (NCATS)
AmpC nodet inh: Promiscuous and Specific Inhibitors of AmpC Beta-Lactamase (assay without detergent); 71,000 compounds, 1.8% hits; AID 585, 2007; AmpC nitrocefin hydrolysis, absorbance 480 nm, no detergent; potencies from a single point are estimates; Potency, µM (top dose mostly 28.7 µM), without a hit: top-dose activity change, negative = inhibition; active = falling curve, for most hits resting on a single point; inconclusive = weak or doubtful change; inactive = flat or rising curve; also: % of control where 0% means no effect; about half of the hits show no inhibition at the top dose; a quarter of the inactives give rising signals
Target sequence (P00811 whole entry, looked up): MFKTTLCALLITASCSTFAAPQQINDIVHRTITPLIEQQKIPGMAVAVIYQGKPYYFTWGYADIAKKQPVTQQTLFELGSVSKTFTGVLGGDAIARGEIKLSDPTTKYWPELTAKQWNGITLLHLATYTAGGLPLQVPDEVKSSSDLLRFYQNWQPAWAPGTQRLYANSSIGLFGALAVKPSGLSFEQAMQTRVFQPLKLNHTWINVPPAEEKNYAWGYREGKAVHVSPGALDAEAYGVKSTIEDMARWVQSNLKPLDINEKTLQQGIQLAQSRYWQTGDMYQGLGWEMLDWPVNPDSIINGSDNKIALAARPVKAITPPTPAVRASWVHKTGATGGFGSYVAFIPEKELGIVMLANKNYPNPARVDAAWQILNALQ
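AmpC in 20 mM phosphate buffer pH 7.0 was preincubated 15 min at room temperature with compounds. Nitrocefin (800 uM stock) was then added and hydrolysis followed at 480 nm every 20 s for 4 min.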
An asterisk follows results filed as active; ? = inconclusive; [ ] = remark or other dose. Potency is read from the fitted curve at half-maximal effect. Not all compounds are listed. The share of hits here may be higher or lower than overall.

SMILES	AmpC nodet inh
O=C(NCCC1=CCCCC1)C1CCCN(S(=O)(=O)c2cnc[nH]2)C1 (stereo not drawn)	-4.6%
O=C(Cn1cnc2c(nnn2Cc2ccc(Cl)cc2)c1=O)N1CCN(c2ccccc2)CC1	43.5%
Clc1ccccc1-c1nc(Nc2ccncc2)c2ccccc2n1	31.4%
CCc1cc2c(=O)c(-c3nc4ccccc4[nH]3)coc2c(CN2CCCC(C)C2)c1O (stereo not drawn)	-15.7%
CCOC(=O)C1CCCN(CC(=O)Nc2c(C(=O)OC)[nH]c3ccc(C)cc23)C1 (stereo not drawn)	96.9%
CCOC(=O)c1sc2nc(SCC#N)n(CC3CCCO3)c(=O)c2c1C (stereo not drawn)	7.5%
O=C(NCCN1CCOCC1)c1cc(-c2cccs2)on1	-2.0%
CCc1ccccc1NS(=O)(=O)c1ccc2[nH]cc(C(=O)NCC3CCCO3)c(=O)c2c1 (stereo not drawn)	39.2%
OCCO	-4.4%
COc1ccc(N2CC(C(=O)NCCCN3CCOCC3)CC2=O)cc1 (stereo not drawn)	7.6%
CN(C)[C@@H]1C(=O)C(C(N)=O)=C(O)[C@]2(O)C(=O)C3=C(O)c4c(O)ccc(Cl)c4[C@H](O)[C@H]3C[C@@H]12	-7.9%[12.8 µM]
O=C(NCc1cccnc1)c1ccc2c(c1)OCO2	-6.4%
CCc1cc2c(NC(C(=O)O)C(C)C)ncnc2s1 (stereo not drawn)	-2.6%
N[C@H](CCCC(=O)O)C(=O)O	-1.9%
CCN(CCCNC(=O)C1CCCN(S(=O)(=O)CC)C1)c1cccc(C)c1 (stereo not drawn)	92.4%
O=c1cccc2n1C[C@H]1C[C@@H]2CN(CCO)C1	9.5%
COc1ccccc1-c1nnc(SCC(=O)OC(C)C)o1	20.9%
CC(=O)CC1OC(=O)C(Br)=C1NCc1ccccc1 (stereo not drawn)	-15.2%
O=C(O)C1Cc2c([nH]c3ccccc23)C(c2ccc3c(c2)OCO3)N1 (stereo not drawn)	15.0%
Cc1ccc(S(=O)(=O)N2CCCCC2C(=O)NCc2ccco2)cc1 (stereo not drawn)	17.7%
COc1cccc(-n2nnc3c(=O)n(CC(=O)N4CCC(Cc5ccccc5)CC4)cnc32)c1	-5.8%
CN(C)c1cccc2c(S(=O)(=O)Nc3ccccn3)cccc12	-0.7%
CCOC(=O)N1CCN(C(=O)CN(c2cccc(C)c2)S(=O)(=O)c2ccccc2)CC1	90.3%
CC(C)(C)C1CCC(OC(=O)c2ccncc2)CC1 (stereo not drawn)	18.9%
CC(=NCc1ccco1)c1c(O)n(C2CCCCC2)c(=O)[nH]c1=O	7.6%
Cn1nc(C(=O)NCC2CCCO2)c2ccccc2c1=O (stereo not drawn)	1.9%
CN(C)S(=O)(=O)N(CC(=O)Nc1ccccc1C(F)(F)F)c1ccccc1	1.6%
COc1ccc(-n2c(C)c(C(C)=O)c(C(C)=O)c2C)cc1OC	60.5%
COc1cccc(CNCC(=O)N2C(C)CCCC2C)c1 (stereo not drawn)	7.3%
COCCn1c(=O)c(-c2cccs2)nc2cnc(Oc3cccc(Cl)c3)nc21	6.0%
CC(=O)Nc1cccc(NC(=O)CSc2nnc(Cc3cccn3C)n2CCc2ccccc2)c1	123.1%
CCn1cc(C(=O)OCc2cccc(Br)c2)c(=O)c2ccc(C)nc21	56.6%
O=S(=O)(NC1CC1)c1cccc(S(=O)(=O)N2CCCC2)c1	5.8%
CCOC(=O)N1CCN(S(=O)(=O)c2cc(Br)cc3c2N(C(=O)C2CC2)CC3)CC1	110.8%
COc1ccc(S(=O)(=O)N2CCC(C(=O)Nc3ccccc3C)CC2)c2cccnc12	36.2%
CC(C)C(=O)Nc1cc(C(F)(F)F)ccc1N1CCOCC1	13.6%
Cc1ccccc1NC(=O)C1CCCN1C(=O)NC1CCCCC1 (stereo not drawn)	1.6%
COc1ccc(-c2nc(C3CCCCC3)no2)cc1OC	70.0%
CCCn1c(=O)c2ccccc2n2c(SCc3cc(=O)n4ccsc4n3)nnc12	11.4%
CCS(=O)(=O)c1ccc(NC(=O)c2ccccc2Cl)c(O)c1	?

Looked up by compound from the entries so far:
SMILES	AmpC nodet inh
CCn1cc(C(=O)OCc2cccc(Br)c2)c(=O)c2ccc(C)nc21	56.6%
Cn1nc(C(=O)NCC2CCCO2)c2ccccc2c1=O (stereo not drawn)	1.9%
COc1ccc(-c2nc(C3CCCCC3)no2)cc1OC	70.0%

Remaining list, next part.
SMILES	AmpC nodet inh
O=C(c1cc2cc(Cl)cc(Cl)c2oc1=O)N1CCOCC1	0.5%
Cc1cccc(N2C(=O)CC(N3CCOCC3)C2=O)c1 (stereo not drawn)	1.3%
Cc1nnc(SCC2=C(C(=O)O)N3C(=O)[C@@H](NC(=O)Cn4cnnn4)[C@@H]3SC2)s1	-7.3%[12.8 µM]
CC(C)c1ccc2oc(=O)cc(CN3CCN(c4ccccc4)CC3)c2c1	16.6%
N=c1n(CCO)c2ccccc2n1CCOc1ccccc1	-2.8%
COc1cccc(Nc2nc(N)nc(C(F)(F)F)n2)c1	-1.9%
CN(C)c1ncc2ncc(=O)n(CCC#N)c2n1	4.3%
O=C(O)Cc1ccc(-c2ccccc2)cc1	-3.0%[12.8 µM]
Cc1cc(N2CCOCC2)nc(NCc2ccccc2)n1	0.3%
CCOC(=O)c1c(NC(=O)Cc2cccs2)sc2c1CCCC2	?
COc1ccc(N(CC(=O)NCc2ccco2)S(C)(=O)=O)cc1	-4.5%
COc1cc(CC(=O)Nc2sccc2C(N)=O)cc(OC)c1OC	11.2%
O=C(CCC(=O)N(CC(=O)NC1CCCCC1)c1ccc2c(c1)OCO2)Nc1ccccn1	48.6%
CCOc1ccc(Cl)cc1/C=N/O	-15.0%
Cc1ccc2c(c1)CC1(CN2C)C(=O)NC(=O)N(C(C)C)C1=O (stereo not drawn)	6.6%
CC1(C(=O)NCC2CC2)C=CC2(CCCCC2)N1C(=O)c1ccccc1 (stereo not drawn)	27.3%
Cc1ccccc1-n1nnnc1SCC(N)=O	-1.7%
COc1ccc(OC)c(NC(=O)C2CCN(S(=O)(=O)c3cccs3)CC2)c1	-13.1%
CCOC(=O)C1=C(C)N=C2SC(C)C(=O)N2C1c1ccc(OC(C)=O)c(OCC)c1 (stereo not drawn)	104.9%
COc1ccc(OCc2cccc(C(=O)N3CCCC3)c2)cc1	57.4%
CC(=O)c1cccc(NC(=O)c2ccco2)c1	-14.2%
COc1ccc(N(CC(=O)NCCSc2ccccn2)S(C)(=O)=O)cc1Cl	22.2%
O=C(c1cc2n(n1)C(C(F)(F)F)CC(c1ccco1)N2)N1CCN(c2ccccn2)CC1 (stereo not drawn)	102.2%
O=C(Nc1ccc(C(=O)N2CCCC2)cc1)c1ccccc1F	0.1%
O=C(COc1ccccc1)N(Cc1ccco1)C1CCS(=O)(=O)C1 (stereo not drawn)	0.4%
Oc1ccc2c3c1O[C@@H]1[C@@H](O)CC[C@]4(O)[C@H](C2)N(CC2CCC2)CC[C@@]314	-2.3%
CCCCN1C(=O)CN(CCc2ccccc2)C(=O)C1c1ccc(OC)cc1 (stereo not drawn)	43.4%
CC(C)c1ccc(NC(=O)c2csnn2)cc1	-8.2%
COc1ccccc1N1CCN(C(CNC(=O)Oc2ccccc2)c2cccnc2)CC1 (stereo not drawn)	76.4%
CCOc1ccc(N)cc1	-9.4%
O=C(O)c1ccc(-n2nnnc2SCc2ccccc2F)cc1	-0.3%
COc1cc(C(c2sc3nc(C)nn3c2O)N2CC(C)OC(C)C2)cc(OC)c1OC (stereo not drawn)	1.2%
CN(C)c1ncc2nc(-c3cc(F)cc(F)c3)c(=O)n(CCc3ccccc3)c2n1	-0.5%
N#CCSc1ncnc2sc3c(c12)CCC3	-6.0%
CC1(C)CC2CC(C)(CN2C(=O)COC(=O)c2n[nH]c(=O)c3ccccc23)C1 (stereo not drawn)	43.2%
CN(C)S(=O)(=O)n1cnc(-c2ccccc2)c1-c1ccccc1	18.8%
OCCCNC(c1ccccc1)c1ccc(O)cc1 (stereo not drawn)	4.6%
COc1ccc(C(=O)OCC(=O)NCc2ccco2)cc1OC	8.1%
CS(=O)(=O)N1CCC2(CCCN(Cc3ccc(C#N)cc3)C2)CC1	11.6%
NCCCN1CCN(c2ccccc2)CC1	2.8%[5.75 µM]

Quoted from the listing:
In AmpC nodet inh, Oc1ccc2c3c1O[C@@H]1[C@@H](O)CC[C@]4(O)[C@H](C2)N(CC2CCC2)CC[C@@]314 has the entry -2.3%
In AmpC nodet inh, CS(=O)(=O)N1CCC2(CCCN(Cc3ccc(C#N)cc3)C2)CC1 has the entry 11.6%

(further entries)
SMILES	AmpC nodet inh
COc1ccc(N2CCN(C(=O)c3ccc(NS(=O)(=O)c4ccc(F)cc4)cc3)CC2)cc1	9.4%
COc1ccccc1NC(=O)c1cn(C)c(=O)c2cc(OC)c(OC)cc12	102.2%
COc1ccccc1NC(=O)c1ccc(Br)o1	-1.1%
CSSC	-16.4%
Nc1nonc1-c1nc2ccccc2n1Cc1ccc(F)cc1	-8.6%
CC(=O)c1c(C(C)=O)c(C)n(-c2nc(-c3cccs3)c(C)s2)c1C	66.0%
Cc1nc(C)c(C(=O)C2=C(O)C(=O)N(CCN3CCOCC3)C2c2cccs2)s1 (stereo not drawn)	1.6%
Cc1ccc(NC(=O)C2CC(c3ccc(F)cc3)=NO2)cc1 (stereo not drawn)	9.7%
COC1(OC)C(=N/O)/C(=N\O)CCC1O (stereo not drawn)	-4.3%
COCCNC(=O)C(c1cccs1)N(C(=O)Cn1nnc2ccccc21)c1ccc2c(c1)OCO2 (stereo not drawn)	44.1%
N#CCCN(Cc1cccnc1)C(=O)Nc1cccc(Cl)c1	7.8%
CCN1C(=O)N(CN2CCOCC2)C2C1N(CN1CCOCC1)C(=O)N2CC (stereo not drawn)	0.9%
Cc1ccccc1CN1CCN(CC(=O)NCc2ccccn2)C1=O	13.6%
COc1cc(Br)cc(CN2CCN(C/C=C/c3ccccc3)CC2)c1O	77.1%
COc1cccc2c(=O)n(CC(=O)N3CCCCCC3)ccc12	7.4%
O=C(COc1ccc(S(=O)(=O)N2CCCCC2)cc1)NC1CCCCC1	49.3%
CC(C)NC(=O)c1cc(=O)n(C)c(=O)n1C	7.1%
CCOc1ccc(N(CC(=O)NC2CCCC2)S(=O)(=O)c2c(C)[nH]c(=O)[nH]c2=O)cc1	3.3%
O=c1c2c3c(sc2nc2n1CCCC2)CCC3	10.3%
CC1(C)NC(=O)N(CCOc2ccc3c(c2)CCC3)C1=O	13.1%
C=COC(=O)CSc1snc(SCC(=O)OC)c1C#N	-3.7%
O=c1[nH]c(CN2CCc3ccccc32)nc2scc(-c3cccs3)c12	0.794µM*
COc1cc(NC(=O)c2cc(C)on2)cc(OC)c1OC	-3.8%
CCN(CC)CCCNC(=O)Cc1c(C(=O)O)n(C)c2ccccc12	-6.4%
COc1ccc(-c2cc(C(N)=O)nc(N3CCCCCC3)n2)cc1	-5.1%
COc1ccc(CNc2nc(-c3ccccc3CN(C)C)nc3ccccc23)c(OC)c1	94.1%
CN(C)c1ncc2nc(-c3cccs3)c(=O)n(-c3ccccc3)c2n1	-6.9%
Cc1cc(C)n(-c2nc3sc4c(c3c3nnc(SC(C)C)n23)CC(C)(C)OC4)n1	86.8%
CC1CCC(N2CCN(c3ncccn3)CC2)CC1 (stereo not drawn)	-6.4%
O=C(Cn1ccc2ccccc2c1=O)Nc1ccc2c(c1)OCO2	-6.4%
C=CCN1C(=O)C(O)=C(C(C)=O)C1c1ccccc1F (stereo not drawn)	-3.4%
CCc1nn(CC(=O)NCCCN(Cc2ccccc2)C(C)C)c(=O)c2cc3sccc3n12	40.2%
O=C(O)CCC(=O)Nc1ccc(-c2nnc(-c3ccco3)o2)cc1	10.8%
COc1ccc(OCC(O)CNC(=O)c2ccc(Br)cc2)cc1 (stereo not drawn)	-0.9%
COc1cccc(NC(=O)NC2CCN(Cc3nnnn3Cc3ccc(F)cc3)CC2)c1	50.1%
CSc1ccccc1N=CC1=C(O)CC(C)(C)CC1=O	26.8%
COc1ccccc1CN1CCCC2(CCN(C(=O)c3ccncc3)CC2)C1	22.3%
COC(=O)c1[nH]c2cccc(OC)c2c1NC(=O)CN1CCC(C(N)=O)(N2CCCCC2)CC1	25.8%
CCCCNC(=O)CS(=O)Cc1nc(-c2ccc(C)cc2)oc1C (stereo not drawn)	3.98µM*[single pt active]
CC(=O)N1CCC2(CC1)CCN(c1ccccn1)CC2	-3.0%
O=C(c1coc2ccccc2c1=O)N1CCN(c2cccc(C(F)(F)F)c2)CC1	67.8%
Nc1nc(Sc2ccc([N+](=O)[O-])c3nonc23)c2[nH]cnc2n1	10.7%[5.75 µM]
C[C@H]1C(=O)O[C@@H]2CCN3CC=C(COC(=O)[C@@](C)(O)[C@@]1(C)O)[C@H]23	-7.0%[12.8 µM]

Filtered by structure, the compounds so far with an aryl thioether with sulfur outside any ring (13)
SMILES	AmpC nodet inh
CCOC(=O)c1sc2nc(SCC#N)n(CC3CCCO3)c(=O)c2c1C (stereo not drawn)	7.5%
COc1ccccc1-c1nnc(SCC(=O)OC(C)C)o1	20.9%
CC(=O)Nc1cccc(NC(=O)CSc2nnc(Cc3cccn3C)n2CCc2ccccc2)c1	123.1%
CCCn1c(=O)c2ccccc2n2c(SCc3cc(=O)n4ccsc4n3)nnc12	11.4%
Cc1nnc(SCC2=C(C(=O)O)N3C(=O)[C@@H](NC(=O)Cn4cnnn4)[C@@H]3SC2)s1	-7.3%[12.8 µM]
Cc1ccccc1-n1nnnc1SCC(N)=O	-1.7%
COc1ccc(N(CC(=O)NCCSc2ccccn2)S(C)(=O)=O)cc1Cl	22.2%
O=C(O)c1ccc(-n2nnnc2SCc2ccccc2F)cc1	-0.3%
N#CCSc1ncnc2sc3c(c12)CCC3	-6.0%
C=COC(=O)CSc1snc(SCC(=O)OC)c1C#N	-3.7%
Cc1cc(C)n(-c2nc3sc4c(c3c3nnc(SC(C)C)n23)CC(C)(C)OC4)n1	86.8%
CSc1ccccc1N=CC1=C(O)CC(C)(C)CC1=O	26.8%
Nc1nc(Sc2ccc([N+](=O)[O-])c3nonc23)c2[nH]cnc2n1	10.7%[5.75 µM]
